Calb biofilm kill: mixture kills Candida albicans biofilm cells. C. albicans biofilm persisters + clotrimazole, fluorescence viability; primary screen in compound mixtures of four per well. inhibition, % at 7.6 µM. 120,000 compounds, 0.02% hits. AID 1242;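 active means inhibition above 30.3% in the primary screen of four-compound pools, then above 30% when the compound was retested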;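 further: compounds exposed to preformed 24 h biofilms for 48 h; the number belongs to the whole pool; some results filed as inactive read as strong as hits; inactives centre near 12; 0% = biofilm with clotrimazole alone and 100% = kill control; retested singly at about 60 µM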
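Assay system: C. albicans biofilms / Medium: RPMI/MOPS medium, pH 7.0 / Schedule: biofilm formation 24 h, compound exposure 48 h, 37 °C / Measured by: Alamar Blue fluorescence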
* = called active by the depositor; & = joins results of further samples. An excerpt; rates above refer to the full screens.

| SMILES | Calb biofilm kill |
| --- | --- |
| N#C/C(=C/c1ccc(Br)s1)C(=O)NCCc1c[nH]c2ccccc12 | 19 |
| COC(=O)c1cc(C(=O)N2CCN(c3cccc(Cl)c3)CC2)cc([N+](=O)[O-])c1 | 10 |
| COC(=O)Cc1[nH]c(=S)[nH]c1C(=O)OC | 10 |
| COc1ccc(NC(=O)c2ccc3c(=O)n(-c4ccc(OC)cc4OC)c(=S)[nH]c3c2)cc1 | 17 |
| CCN1CCCC1CNC(=O)C(=O)NC(C)c1ccccc1 (centres undefined) | 16 |
| Fc1cccc(F)c1-n1c(CN2CCCCC2)csc1=S | 19 |
| C=CCN1C=C2C(=O)C(C)(OC(=O)C3CCCC3)C(=O)C=C2C=C1c1ccsc1 (centres undefined) | 15 |
| Nc1nnc(SCC(=O)OCC(=O)Nc2ccccc2)s1 | 14 |
| CCOC(=O)c1ccc(NC(=S)NCCc2ccccc2F)cc1 | -14 |
| COc1cc(NC(=O)CSc2c3c(nc4ccccc24)CCC3)cc(OC)c1OC | 17 |
| COC(C[C@H](O)C[C@H](O)COCc1ccccc1)OC | 13 |
| CSc1nc2c(c(=O)[nH]1)C(c1cccc(Br)c1)CC(=O)N2 (centres undefined) | 10 |
| COc1ccc(N2CCN(C(=S)NC(C)c3ccccc3)CC2)cc1 (centres undefined) | 14 |
| COc1cc(OC)cc(C(=O)N2CCC(N3CCN(c4ccccc4OC)CC3)CC2)c1 | 9 |
| CC(C)(C)NC(=O)COC(=O)/C=C/c1ccc(F)cc1 | 15 |
| CCn1c(-c2ccncc2)n[nH]c1=S | 8 |
| CC(C)(C)c1cc(Br)c(O)c(N=Nc2ccc(S(=O)(=O)N3CCOCC3)cc2)c1 | 14 |
| CC(=O)/C=C/c1ccccc1O | 25 |
| CCCC(C)NC(=O)Cc1ccccc1 (centres undefined) | 28 |
| COc1cc(CN2CCN(CCc3ccccc3)C(CCO)C2)cc(OC)c1 (centres undefined) | 13 |
| CCCN1CCC(=O)N(CCSc2ccc(C)cc2)CC1 | 13 |
| O=C(Cc1ccc(Cl)cc1)NNC1CC(=O)N(c2ccc3ccccc3c2)C1=O (centres undefined) | 19 |
| COc1ccccc1Oc1nc(C)c(C(C)=O)cc1C#N | 19 |
| CCOc1ccc(CC(=O)NNC(=S)NC)cc1Br | 19 |
| CCCCOc1ccc(-c2c(C#N)c(N)[nH]c(=S)c2C#N)cc1 | 24 |
| CN(C)c1ccc(/C=N/n2c(COc3ccccc3)n[nH]c2=S)cc1 | 5 |
| Cc1nn(-c2ccccc2)c(N)c1N=O | 22 |
| CC(C)(C)OC(=O)N/N=C\c1ccc[nH]1 | 21 |
| COc1ccc(Cn2c(=O)c3[nH]cnc3n(-c3ccccc3C)c2=O)cc1 | 29 |
| CC(C)COC(=O)n1c(=O)oc2ccc(S(=O)(=O)N3CCCCC3)cc21 | 1 |
| Cc1ccc(C)c(Oc2ncnc(N)c2[N+](=O)[O-])c1 | -6 |
| O=C(C(=O)N1CCN(c2ccc(F)cc2)CC1)c1c[nH]c2ccccc12 | 4 |
| CN(C(=O)C(Cl)Cl)c1ccc(OC(=O)c2ccco2)cc1 | 12 |
| O=[N+]([O-])c1cc(S(=O)(=O)N2CCOCC2)ccc1N1CCCC1 | 2 |
| Fc1ccc(CSc2ncnc3ccccc23)cc1 | -1 |
| O=c1cc(CCl)[nH]c2nc3ccccc3n12 | 12 |
| Cc1cc(C(F)(F)F)n2[nH]c(=O)c(N=Nc3ccccc3)c2n1 | 18 |
| C/C(=N\NC(=O)c1cccc(N2CCCC2=O)c1)c1ccc(N)cc1 | 10 |
| COc1ccc(OCC(O)CNC(=O)Nc2cccc3ccccc23)cc1 (centres undefined) | 12 |
| CC(=O)NC(C)c1nc2ccccc2n1CC(=O)N1C(C)CCCC1C (centres undefined) | 13 |
| CC1=Cc2ccccc2C(C#N)N1C(=O)c1ccccc1 (centres undefined) | 2 |
| O=c1c2ccccc2nc(SCc2cccc(F)c2)n1-c1cccc(S(=O)(=O)N2CCCC2)c1 | 14 |
| Cc1cccc(C(=O)Nc2ccc(C(=O)/C=C/c3cccnc3)cc2)c1 | -10 |
| Cc1ccc(Nc2nnc(C3C(=O)N(C)C4(C)CC3c3cc(Br)ccc3O4)s2)cc1 (centres undefined) | -3 |
| CN(C)/C=C(\C(=O)c1ccccc1)c1nnnn1-c1ccccc1 | 27 |
| O=C(CSc1ccccn1)Nc1ccc2c(c1)C(=O)c1ccccc1C2=O | 9 |
| C/C(=N\Nc1ccc2nncn2n1)c1cccs1 | 19 |
| CC(=O)Oc1ccc(/C=N/NC(=S)Nc2ccccc2)cc1 | 14 |
| COc1ccc(N=C2NC(=O)/C(=C\C=C\c3ccco3)S2)cc1 | 20 |
| CNC(=S)N/N=C/c1c(C)nn(-c2ccc(F)cc2)c1Cl | 9 |

Molecules listed so far that contain a furan ring, fused or not:
| SMILES | Calb biofilm kill |
| --- | --- |
| CN(C(=O)C(Cl)Cl)c1ccc(OC(=O)c2ccco2)cc1 | 12 |
| COc1ccc(N=C2NC(=O)/C(=C\C=C\c3ccco3)S2)cc1 | 20 |

Additional compounds
| SMILES | Calb biofilm kill |
| --- | --- |
| CC(C)(C)/C(Cn1cncn1)=N\OC(=O)Nc1ccc(Cl)cc1 | 14 |
| CCCCC(=O)Nc1ccc(NC(=O)c2ccc([N+](=O)[O-])cc2)cc1OC | 12 |
| CCCCn1c(=O)[nH]c(=O)c2c1nc(-c1ccc(OCCC)c(OCC)c1)n2CCOC | 16 |
| CC1CCN(C(=O)c2cc(Cl)nc3ccccc23)CC1 | 13 |
| Cc1cccc(NC(=O)CSc2cc(C(=O)c3nccn3C)c3ccccc3n2)c1 | 3 |
| CCCCC(=O)NC(=S)Nc1cc([N+](=O)[O-])ccc1OC | 16 |
| COCCNC(=O)/C(=C/c1ccccc1Cl)c1ccccc1 | 0 |
| COc1ccc2nc(N=Nc3ccc(O)c4ccccc34)sc2c1 | 0 |
| Cc1ccc(S(=O)(=O)Nc2nc3ccccc3nc2NCc2ccc3c(c2)OCO3)cc1C | 13 |
| COc1ccc(NC(=O)c2nc[nH]c2C(=O)N2CCC(C)CC2)cc1 | 6 |
| CCCOc1ccc(CSC(=N)N)cc1C(=O)OC | 18 |
| Cc1ccc(/C=N/NC(=O)Cn2nnc(N)n2)o1 | 14 |
| COc1ccc(NC(C)=O)cc1NC(=O)c1ccc(C#N)cc1 | 9 |
| COc1ccc(OC)c(NC(=O)CN(C)CC(=O)Nc2ccccc2Br)c1 | 20 |
| O=C(CN1C(=O)c2ccccc2C1=O)Nc1ccc(S(=O)(=O)N2CCOCC2)cc1 | 12 |
| COCC(=O)Nc1nc(-c2ccc(C)cc2)c(C)s1 | 4 |
| COc1ccc(NC(=O)Cn2cnc3c(nnn3-c3ccc(C)cc3)c2=O)cc1 | 13 |
| O=C(O)C/C=C(/NC(=O)OCc1ccccc1)C(=O)OCc1ccccc1 | 12 |
| Cc1cc(C(=O)N2CCc3c([nH]c4ccccc34)C2c2c(F)cccc2Cl)no1 (centres undefined) | 9 |
| CCC(C(=O)Nc1ccc2c(c1)OCCO2)c1ccccc1 (centres undefined) | 14 |

Sorted by count of non-hydrogen atoms (ascending): part of the list above
| SMILES | Calb biofilm kill |
| --- | --- |
| Cc1ccc(/C=N/NC(=O)Cn2nnc(N)n2)o1 | 14 |
| COc1ccc(NC(C)=O)cc1NC(=O)c1ccc(C#N)cc1 | 9 |
| Cc1cc(C(=O)N2CCc3c([nH]c4ccccc34)C2c2c(F)cccc2Cl)no1 (centres undefined) | 9 |
| O=C(CN1C(=O)c2ccccc2C1=O)Nc1ccc(S(=O)(=O)N2CCOCC2)cc1 | 12 |

Remaining list, next part.
| SMILES | Calb biofilm kill |
| --- | --- |
| O=C(COC(=O)c1cccc(Br)c1)NCCC1=CCCCC1 | 18 |
| Cc1ccccc1-n1ncc(C(C)NC(=O)c2ccccc2)c1C (centres undefined) | 18 |
| COC(=O)COc1ccc(-n2cnnn2)cc1 | 5 |
| O=C(CN1CCN(Cc2ccc(F)cc2Cl)C1=O)NCc1cccs1 | 11 |
| Cc1[nH]c2ccc(F)cc2c1CCN(Cc1ccncc1)C(=S)Nc1ccccc1 | 17 |
| Cc1ccc(N=C2NC(=O)S/C2=C\c2ccco2)cc1 | 11 |
| CCOC(=O)c1c(/N=C/C2=C(O)CCCC2=O)sc2c1CCCC2 | 2 |
| CN(C)C(=O)NC(Nc1cccc([N+](=O)[O-])c1)C(Cl)(Cl)Cl (centres undefined) | 16 |
| O=[N+]([O-])c1ccc(C2=Nn3cnnc3SC2)cc1 | -1 |
| O=C(CN1C(=O)COc2ccc(S(=O)(=O)N3CCOCC3)cc21)NCc1ccco1 | 13 |
| CC(=O)Nc1nc(-c2ccccc2)ns1 | 10 |
| Cc1ccc(C)c(C2NC(=O)c3ccccc3N2)c1 (centres undefined) | 13 |
| COc1cc2c(cc1NC(=O)CSc1nccn1C)oc1ccccc12 | 12 |
| S=C(NCc1ccco1)N/N=C/c1cccnc1 | 15 |
| COc1ccc(S(=O)(=O)N2CCC[C@H]2C(=O)NCc2ccc(Cl)cc2)cc1 | 3 |
| CCOc1cc(C(N)=O)cc(Cl)c1OCC | -15 |
| CS(=O)(=O)c1ccccc1-c1nc(-c2cccc(Cl)c2)no1 | 1 |
| O=[N+]([O-])c1cc(-c2nnc(-c3ccccc3)o2)ccc1Oc1ccc(Cl)cc1 | 1 |
| O=C(NCCOc1ccccc1)C(=O)NCC1CCCO1 (centres undefined) | 22 |
| O=C(Cn1nc(-c2ccccc2)c2ccccc2c1=O)Nc1ccc(F)cc1 | 28 |
| Cc1ccc(S(=O)(=O)/N=C2\CN(C)C(=O)N2C)cc1 | 15 |
| OCc1ncccc1O | 8 |
| CCOC(=O)c1cc(CC)sc1NC(=O)CC1SC(N)=NC1=O (centres undefined) | 17 |
| COc1ccc(-c2[nH]ncc2CNCc2cc(C)n(C)n2)c(F)c1 | 8 |
| Cc1ccc(NC(=O)CCC(=O)OCc2ccc(Br)cc2)cc1 | 11 |
| CNC(=O)COc1ccc(S(=O)(=O)Nc2ccc(C)cc2)cc1 | 43 |
| Cc1ccccc1C(=O)NNC(=O)Nc1ccccc1 | 10 |
| Cc1cc(-c2nn(-c3ccccc3F)cc2CN2CCN(c3ccncc3)CC2)c(C)s1 | 14 |
| Cc1cc(C)c2[nH]c(=O)c(CN(CC3CCCO3)C(=S)NCc3ccco3)cc2c1 (centres undefined) | 11 |
| CN(C)CCNC(=O)c1onc(CSc2ccc(F)c(F)c2)c1C(=O)NCCN(C)C | 8 |
| CCOc1cc2c3c(c1)C(C)=CC(C)(C)N3C(=O)C2=O | 7 |
| CCSc1ccccc1C(=O)Nc1ccc([N+](=O)[O-])cc1OC | 8 |
| COc1ccccc1CN(C)C(C)C(=O)Nc1cccc(C(C)=O)c1 (centres undefined) | 6 |
| Clc1ccc(OCCCCN2CCc3ccccc3C2)cc1 | 13 |
| O=C1NC(=O)C(c2ccccc2)(c2ccccc2)N1 | 10&7 |
| NC(=S)N/N=C/c1ccccc1OCCSc1ccc(Cl)cc1 | 14 |
| COc1ccc(N2C(=O)C(F)(F)C2c2ccc(C)cc2)cc1OC (centres undefined) | 21 |
| Cc1cc(C(=O)CSc2nnnn2-c2ccc(O)cc2)c(C)n1C | 12 |
| O=C(NC(Cc1ccccc1)C(=O)O)/C(=C/c1ccccc1)NC(=O)c1cccc(Br)c1 (centres undefined) | 13 |
| COc1ccc(C2CC(c3cccs3)=NN2C(=O)COC(=O)c2cncc(Br)c2)cc1OC (centres undefined) | 17 |
| O=C(CCN1C(=O)/C(=C/C=C/c2ccccc2)SC1=S)Nc1ccccn1 | 27 |
| O=C(c1cnc2c(c1)COc1ccc(Cl)cc1-2)c1ccccc1O | 6 |
| COc1cccc(CC(=O)N[C@@H](CCSC)c2nc3ccccc3[nH]2)c1 | 11 |
| CN(C)S(=O)(=O)c1ccc(Cl)c(NC(=O)COC(=O)CN2C(=O)C3CCCCC3C2=O)c1 (centres undefined) | 17 |
| COc1cc(NC(=O)c2ccnc(N)c2)cc(C(=O)Nc2cccc(C(F)(F)F)c2)c1 | 9 |
| CSc1cnc2c(=O)n(C)c(=O)[nH]c2n1 | 12 |
| Cn1cccc1/C=N/n1c(-c2ccco2)n[nH]c1=S | 2 |
| Brc1ccc(-c2noc(-c3ccccc3)n2)o1 | 21 |
| CCN(CC)c1ccc(/C=N/NC(=O)CN2CCCc3ccccc32)cc1 | 19 |
| O=C(/C=C/c1cc([N+](=O)[O-])ccc1OC(F)F)Nc1cccc2ccccc12 | 5 |

Carrying on:
| SMILES | Calb biofilm kill |
| --- | --- |
| CC1CCN(C(=O)CCc2nnc(-c3ccccc3)o2)CC1 | 2 |
| CCN(CC)c1c([N+](=O)[O-])c(=O)oc2ccccc12 | -2 |
| O=C(c1ccc(Cl)c(Cl)c1)N1CCC(=O)N(C(COCc2ccc(Cl)cc2)Cc2ccccc2)CC1 (centres undefined) | 6 |
| O=C(c1ccc(N2CCCC2)c([N+](=O)[O-])c1)N1CCN(c2ccccn2)CC1 | 25 |
| O=C1C=C(NNC(=O)c2ccncc2)CC(c2ccccc2)C1 (centres undefined) | 9 |
| Cc1ccc2[nH]c(=O)c(CN(CCCN3CCOCC3)C(=O)Nc3cccc(Cl)c3)cc2c1 | 19 |
| Cc1ccc(C)n1CCN1CCN(S(=O)(=O)c2ccc(F)cc2F)CC1 | 24 |
| CCC(C)(C(=O)NC1CCCC1)N(C(=O)CC1NC(=O)NC1=O)c1c(C)n(C)n(-c2ccccc2)c1=O (centres undefined) | 15 |
| O=C(NCc1ccccc1)N1CCC(CO)(Cc2cccc(F)c2)CC1 | 23 |
| COc1cc(/C=N/NC(=O)c2ccc(F)cc2)ccc1OC(=O)c1ccco1 | -1 |
| COCc1cc(C)nc(OCC(=O)N/N=C/c2ccc(O)cc2)c1C#N | 7 |
| Cc1c(Cl)c([N+](=O)[O-])nn1CCCC(=O)Nc1cccc(Cl)c1Cl | 18 |
| Cc1cccc(Cc2ccc(Cl)nn2)c1 | 20 |
| CCOc1ccc(OCCCCn2ccnc2)cc1 | 10 |
| CC1CCCN(c2ccc([N+](=O)[O-])cc2C(=O)c2ccccc2)C1 (centres undefined) | 10 |

Screening results from PubChem BioAssay.
